# PABP polyA inh: PABP-poly(A) binding inhibition. P11940. PABP-poly(A) RNA binding, fluorescence polarization. inhibition, % at 35 µM. 1% of 290,000 active;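 active means 50% or more with normal probe brightness, or confirmed in later tests; about a fifth of its hits are not listed in these tables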;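 further: calls also rest on retests at 20 µM and on dose response follow-up; controls were probe without protein and protein plus probe with vehicle; some compounds called inactive have numbers as strong as hits; many hits fall short of the cut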
# Target sequence (P11940 whole entry, looked up): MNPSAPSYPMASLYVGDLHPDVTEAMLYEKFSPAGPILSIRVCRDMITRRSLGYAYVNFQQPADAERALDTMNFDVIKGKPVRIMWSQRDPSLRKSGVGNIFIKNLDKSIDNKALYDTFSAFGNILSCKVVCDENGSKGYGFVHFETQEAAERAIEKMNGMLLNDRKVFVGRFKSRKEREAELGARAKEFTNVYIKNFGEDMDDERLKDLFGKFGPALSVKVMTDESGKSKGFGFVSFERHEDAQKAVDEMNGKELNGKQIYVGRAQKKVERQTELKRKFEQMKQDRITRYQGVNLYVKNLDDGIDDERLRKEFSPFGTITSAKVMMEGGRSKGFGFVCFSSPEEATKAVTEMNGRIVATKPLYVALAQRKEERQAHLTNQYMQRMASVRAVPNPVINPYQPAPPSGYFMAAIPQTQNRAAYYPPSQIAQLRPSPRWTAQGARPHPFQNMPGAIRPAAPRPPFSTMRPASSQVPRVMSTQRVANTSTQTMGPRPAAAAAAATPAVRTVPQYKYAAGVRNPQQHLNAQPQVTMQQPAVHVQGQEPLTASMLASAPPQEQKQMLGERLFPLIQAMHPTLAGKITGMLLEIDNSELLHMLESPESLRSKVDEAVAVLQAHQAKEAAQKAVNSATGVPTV
# UUG fidelity: modulators of start codon recognition fidelity in yeast; S. cerevisiae UUG-firefly luciferase reporter, luminescence/redox ratio; activity score, % at 18.7 µM; 0.13% of 350,000 active; AID 602363;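 active means replicate mean at a twofold rise or more, about +100% in these data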;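 further: firefly luciferase made from a UUG start codon reports start codon fidelity; reporter light over untreated wells divided by growth signal over untreated wells; some hits fall short of that in this replicate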
# MT1-MMP act inh: inhibitors of human MT1-MMP activation; P50281; HT1080 RFP-PRO-GFP cells, GFP/RFP ratio fluorescence, overnight; percent of plate control window, DMSO zero; GFP/RFP ratio change, % at 20 µM; 0.061% of 360,000 active;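 active means GFP/RFP ratio change of at least 30% with cell ATP level not reduced by more than half and red fluorescence within 50% of control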; further: strong numbers were not always called active
#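 Read-out: GFP/RFP fluorescence ratio; Test system: RFP-PRO-GFP reporter HT1080 cells; Compound dosing: single-point 20 µM compound, 1% DMSO; Times: overnight compound exposure at 37 °C.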
# Rce1 inhib: inhibitors of yeast Ras-converting enzyme; yeast membranes, quenched prenylated peptide cleavage fluorescence; calls only; 0.27% of 290,000 active;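 active means fall in fluorescence gain of 50% or more versus controls, with final raw signal at or below 3038400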;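 further: plate controls were neutral control wells for no effect and wells lacking membranes for full effect; tested at 10 µM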
# Target sequence (Q03530 whole entry, looked up): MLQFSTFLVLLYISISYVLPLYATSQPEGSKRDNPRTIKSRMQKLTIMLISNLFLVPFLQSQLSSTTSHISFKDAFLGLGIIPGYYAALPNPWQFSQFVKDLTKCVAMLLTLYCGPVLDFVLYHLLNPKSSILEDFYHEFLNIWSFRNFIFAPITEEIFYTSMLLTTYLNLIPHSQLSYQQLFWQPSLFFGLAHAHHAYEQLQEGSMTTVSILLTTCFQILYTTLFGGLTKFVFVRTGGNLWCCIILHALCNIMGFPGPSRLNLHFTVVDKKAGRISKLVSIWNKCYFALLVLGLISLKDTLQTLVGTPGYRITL
# CSC inhib: blocks cancer stem cells; cancer stem cell-like cells viability, luminescence; inhibition, % at 7.5 µM; 1.1% of 300,000 active;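 active means mean at 75% or more and at least half the replicates too; tested in HMLE shEcad cells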;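 further: 0% = median of negative and 100% = median of positive control wells; the first replicate is given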
# eIF4H FP inh: inhibitors of RNA binding by human eIF4H. Q15056. eIF4H fluorescence polarization binding assay. inhibition, % at 35 µM. 0.94% of 290,000 active. AID 2012;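 active means 50% or more with normal probe brightness, or confirmed in later tests; about a fifth of its hits are not listed in these tables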;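 further: calls also rest on retests at 20 µM and on dose response follow-up; 0% = protein and probe with vehicle and 100% = probe without protein; strong numbers were not always called active; many hits fall short of the cut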
# HIV Env fusion: inhibitors of HIV Env-mediated cell fusion; HeLa-JRFL Env/CEM21 cell fusion, luciferase; inhibition, % at 12.3 µM; 1.1% of 360,000 active; AID 651610;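 active means mean replicate inhibition score of at least 50 and every replicate individually at or above 50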;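 further: 0% = plate neutral controls and 100% = maraviroc near 300 nM; one replicate is shown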
# eIF4H FP inh retest: further read-out of eIF4H FP inh, marked with its call; inhibition, %; compound at 20 µM; confirmation average;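 mean of two retest wells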
# PABP polyA inh retest: recorded beside PABP polyA inh, whose call it bears; inhibition, %; compound at 20 µM; confirmation repeats;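 mean of two retest wells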
# MT1-MMP act inh RFP: further read-out of MT1-MMP act inh, marked with its call; RFP signal change, %; measured here: RFP expression control read;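 0 = vehicle wells; hits needed this value within 50% of zero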
# * marks the source's active call; other numbers are inactive results; i = inactive; x = not tested or not shown; & = joins results of further samples. The list is partial; count on the stated rates, not on these rows.
SMILES,PABP polyA inh,UUG fidelity,MT1-MMP act inh,MT1-MMP act inh RFP,Rce1 inhib,CSC inhib,eIF4H FP inh,HIV Env fusion,others
Cc1ccc(OCCn2cnc(Cl)c2Cl)cc1,-2,x,1,1,i,-5,-6,-9,
O=C(NCc1ccccc1Cl)c1csc([C@@H]2O[C@H](CO)[C@@H](O)[C@H]2O)n1,x,-16,5,1,x,x,x,-8,
CC(=O)N1CCN(C(=O)CCNC(=O)c2ccc(Br)cc2)CC1,x,-11,-1,-1,x,x,x,-1,
COc1cccc(NC(=O)CN2C(=O)NC(c3ccccc3)(c3ccccc3)C2=O)c1,15,4,1,-1,i,-10,-4,-12,
CC1CN(C(=S)Nc2ccccc2)CC(C)O1 (stereo not drawn),2,-24,-2,3,i,-5,6,-2,
Cc1ccc(CCNS(=O)(=O)c2cc3c(cc2C)NC(=O)CO3)cc1,-7,-6,3,-3,i,0,6,-2,
Cc1ccc(NC(=O)CSc2nc(N)cc(=O)[nH]2)cc1S(=O)(=O)N1CCOCC1,-6,-10,-2,2,i,-2,-4,6,
O=C(/C=C/[C@H]1O[C@@H](n2cnc3c(NC(=O)c4ccccc4)ncnc32)[C@H](O)[C@@H]1O)NCc1cccs1,x,3,2,3,x,x,x,11,
CCOC(=O)N1CCN(C(=O)CCN2C(=O)COc3ccccc32)CC1,-8,-9,2,3,i,-6,0,10,
COc1ccc(/C=C(/NC(=O)c2ccccc2)C(=O)NCc2ccco2)cc1,-6,-15,1,-1,i,x,3,-2,
Cc1ccn2cc(-c3cccc(NC(=O)CCC(=O)O)c3)nc2c1,-4,-12,1,1,i,-2,-10,-9,
Cc1cccn2cc(COc3ccc(-c4ccccc4)cc3)nc12,-3,x,8,-3,i,x,5,-36,

# Of the compounds above, these contain sulfur.
SMILES,PABP polyA inh,UUG fidelity,MT1-MMP act inh,MT1-MMP act inh RFP,Rce1 inhib,CSC inhib,eIF4H FP inh,HIV Env fusion,others
O=C(NCc1ccccc1Cl)c1csc([C@@H]2O[C@H](CO)[C@@H](O)[C@H]2O)n1,x,-16,5,1,x,x,x,-8,
CC1CN(C(=S)Nc2ccccc2)CC(C)O1 (stereo not drawn),2,-24,-2,3,i,-5,6,-2,
Cc1ccc(CCNS(=O)(=O)c2cc3c(cc2C)NC(=O)CO3)cc1,-7,-6,3,-3,i,0,6,-2,
Cc1ccc(NC(=O)CSc2nc(N)cc(=O)[nH]2)cc1S(=O)(=O)N1CCOCC1,-6,-10,-2,2,i,-2,-4,6,
O=C(/C=C/[C@H]1O[C@@H](n2cnc3c(NC(=O)c4ccccc4)ncnc32)[C@H](O)[C@@H]1O)NCc1cccs1,x,3,2,3,x,x,x,11,

# Additional records follow:
SMILES,PABP polyA inh,UUG fidelity,MT1-MMP act inh,MT1-MMP act inh RFP,Rce1 inhib,CSC inhib,eIF4H FP inh,HIV Env fusion,others
CCOC(=O)C1(Cc2ccc(OC)cc2)CCN(C(=O)c2cccc3nccnc23)CC1,-7,x,0,1,i,-13,2,17,
COc1ccc(CC(=O)NC2CCCc3ccccc32)cc1 (stereo not drawn),-4,x,-3,-4,i,-3,-2,-1,
COc1ccc(-n2nc3c(N)n[nH]c3cc2=O)cc1,13,-16,-1,0,x,2,8,3,
Cc1ccc2c(nc3s/c(=C\c4ccc(-c5ccccc5C(=O)O)o4)c(=O)n32)c1C,38,-11,-64,5,i,9,43,-49,
COc1cc(NS(=O)(=O)c2ccc(NC(=O)CN3C(=O)c4ccccc4C3=O)cc2)nc(OC)n1,-1,x,3,-2,x,-5,-10,17,
CCOc1ccc(NC(=O)[C@@H]2CCCN2C(=O)c2cccs2)cc1S(=O)(=O)N1CCCCC1,x,1,4,-4,x,x,x,1,
O=C(OCC(=O)N1CCN(C(=O)c2ccco2)CC1)c1cc(-c2ccco2)nc2ccccc12,70*,-10,-25,-5,i,-8,85*,x,eIF4H FP inh retest=95*;PABP polyA inh retest=97*
COc1ccc(CC(=O)OCC(=O)c2ccc(OC)cc2)cc1,-2,x,3,5,i,3,3,14,
COc1ccc(NC(=O)N(C)C[C@H]2Oc3ccc(NC(=O)Cn4cnnn4)cc3C(=O)N([C@H](C)CO)C[C@@H]2C)cc1,x,-7&0,0,5,x,-33,x,4,
COc1ccccc1-c1noc(-c2cccs2)n1,5,-18,7,2,i,-4,4,x,
CN(Cc1cn(C)nc1-c1cccc(Cl)c1)Cc1nccn1C,6,x,-10,-2,i,-1,6,7,
Cc1cccc(C2c3[nH]c4ccccc4c3CCN2C(=O)c2nn(C)c(=O)c3ccccc23)n1 (stereo not drawn),-9,-5,-4,-4,i,-3,11,16,
Cn1c(=O)c2cc(NC(=O)Cc3ccccc3F)ccc2n1-c1ccc(C(C)(C)C)cc1,x,-10,-6,-11,x,x,x,-29,
NC(=S)N/N=C\c1ccc(-c2cccc(Cl)c2Cl)o1,18,-15,-8,-1,i,61,-6,x,
CCOC(=O)c1c(NC(=O)CSc2nnnn2-c2ccc(OC)cc2)sc(C)c1C,0,-22,1,7,i,-9,1,-75,
Cc1noc(C)c1C(=O)OCC(=O)Nc1cc(Cl)ccc1Oc1ccccc1,-6,x,-8,-11,i,-14,2,x,
CCCc1cc(N2CCCC2)n2nc(C)c(-c3ccccc3)c2n1,11,-5,-5,-7,i,x,-1,19,
O=C(NCCc1ccccn1)c1cncc(Br)c1,3,-20,2,2,x,-2,14,8,
CCN(CC)C(=O)COC(=O)c1ccc(O)cc1,4,-10,2,3,i,0,-6,-20,
Clc1ccccc1CSc1nnc(-c2ccccn2)n1Cc1ccco1,9,-25,-3,-9,x,2,-10,66*,
CC(C)(C)OC(=O)Nc1ccc([C@H](NC(=O)OC(C)(C)C)C(=O)OC(C)(C)C)cc1,x,-12,-2,-5,x,-6,x,-16,
CC1(C(=O)Nc2ccc3c(c2)OCO3)Cc2c(-c3ccc4c(c3)OCO4)ccnc2O1 (stereo not drawn),x,12,0,-7,x,x,x,12,
C=CCn1c(SCC(=O)Nc2ccc3c(c2)OCO3)nnc1-c1ccccc1,-6,-8,-1,-6,i,-13,-6,x,
COc1ccc(O[C@H]2C=C[C@@H](c3ccccc3)O[C@@H]2COC(=O)CC/C(C)=N/O[C@@H](C)CN2CCCCc3nc(C)c(C)cc32)cc1,8,x,x,x,i,x,10,x,
O=C(/C=C/c1ccc(-c2ccccc2[N+](=O)[O-])o1)c1ccc(Br)cc1,0,x,12,15,i,1,17,5,
Cc1c(CCOC(=O)C23CC4CC(CC(C)(C4)C2)C3)sc[n+]1Cc1ccccc1,-4,-7,-15,-18,i,31,-11,-25,
CCCCC(O)(c1ccc(OC)cc1)C(CN1CCOCC1)c1ccccc1 (stereo not drawn),8,9,-27,-17,i,-2,0,30,
CCN(CC)CCCN=Cc1c(O)n(-c2c(C)cccc2C)c(=O)c2ccccc12,2,-5,0,1,i,4,-4,-19,
O=C(Nc1nnc(SCc2c(Cl)cccc2Cl)s1)C1CC(=O)N(c2ccc3c(c2)OCCO3)C1 (stereo not drawn),34,x,1,0,i,26,51,17,eIF4H FP inh retest=-5;PABP polyA inh retest=4
NC(=O)C1CCN(Cc2nc(-c3ccccc3)no2)CC1,9,-5,0,1,i,-12,-3,-55,
Cc1cccc(-c2n[nH]nc2C2=CC(=O)CC(C)(C)C2)c1,x,-18,3,2,x,x,x,41,
O=C(Cc1n[nH]c(=O)c2ccccc12)Nc1cccc(S(=O)(=O)N2CCCCCC2)c1,x,-12,-7,-24,x,x,x,16,
O=C1N/C(=N/O)S/C1=C\c1ccccc1-n1cccn1,-9,x,1,0,i,-8,-4,5,
CCN(CC)C(=O)Cn1cc(S(=O)(=O)CC(=O)N2CC(C)OC(C)C2)c2ccccc21 (stereo not drawn),11,-5,-2,2,i,3,2,2,
O=C(O)c1ccc(CNC(=O)c2ccc3c(c2)OCCO3)cc1,9,x,3,-3,i,-12,14,10,
COc1ccc([C@H]2CC(=O)c3c(O)cc(O)cc3O2)cc1O,9,x,0,-5,i,-9,-2,-2,
Nc1ccccc1SC(CC(=O)c1ccccc1)c1ccc([N+](=O)[O-])cc1 (stereo not drawn),x,-22,-5,-6,x,x,x,-145,
N#Cc1nc(-c2ccco2)oc1NCCCn1ccnc1,-11,x,6,3,i,-11,-7,x,
S=c1nn[nH]n1C12CC3CC(CC(C3)C1)C2,9,-41,4,5,i,-6,-7,x,
CCOC(=O)N1CCN(C(=O)Cn2ccc3ccccc3c2=O)CC1,-2,-2,-2,0,i,0,-5,-132,
CSc1cccc(NC(=O)C2CCN(S(=O)(=O)c3ccc(F)cc3)CC2)c1,-6,-7,2,-5,i,-2,-3,x,
O=C(O)c1nc(N2CCCC2)ncc1Cl,12,-7,2,4,i,-10,-7,x,
O=C(CCc1c[nH]c2ccccc12)Nc1ncccc1O,2,-14,2,0,i,10,68,-8,eIF4H FP inh retest=9;PABP polyA inh retest=6
CCCCNC(=O)C1CCN(S(=O)(=O)c2c(C)noc2/C=C\c2ccc(OC)cc2)CC1,-9,-28,1,-10,i,24,1,2,
O=C(NC1CCCC1)c1cc(Cl)ccc1[N+](=O)[O-],1,x,0,2,i,-3,5,-2,
COc1ccc(Br)cc1CNc1ccc(O)cc1,46,-15,52*,43*,x,12,44,-177,
Cc1cc(C)n2nc(C(=O)Nc3nnc(C4CC4)s3)nc2n1,20,1,6,5,i,-1,8,x,
O=C(CCCn1c(=O)c2ccccc2n(Cc2ccccc2)c1=O)NCc1ccco1,-7,-13,-2,-3,i,-9,2,x,
Cn1c(NC(=O)c2cc(Br)ccc2Cl)cc(=O)n(C)c1=O,-7,-14,-1,3,i,-15,-6,30,
Cn1c(=O)[nH]c(=O)c2c1nc(CN1CCN(c3cccc(Cl)c3)CC1)n2CCc1ccccc1,-3,-16,2,-1,i,x,10,-57,
CC1=NN(C(=O)CSCc2ccccc2)C(O)(c2ccc(Cl)cc2)C1 (stereo not drawn),-4,x,-1,4,i,14,-8,-1,
C[C@@H]1COC(=O)[C@H](Cc2ccc(F)cc2)CC/C=C/C[C@@H](CC(=O)N[C@@H](CO)Cc2ccccc2)C(=O)N1,x,0,-2,-2,x,-5,x,-34,
O=c1oc2c3c4c(cc2s1)CCCN4CCC3,122*,-24,-53,1,i,-1,122*,-61,eIF4H FP inh retest=89*;PABP polyA inh retest=91*
O=C(O)CCc1nn2c3ccccc3nc2n(CCN2CCCCC2)c1=O,-14,1,3,0,i,1,-8,x,
COc1ccc(CN2CCC(=O)NC2=O)cc1,3,-12,-1,-1,i,-4,-11,-10,
O=C(Nc1ccc(S(=O)(=O)Nc2ncccn2)cc1)c1ccccc1Cl,4,-13,-1,0,i,-18,-2,-38,
Cc1cc(C)nc(SCC(=O)NN)n1,4,x,-4,3,i,-12,-4,0,
COc1ccc(NC(=O)c2ccc(-n3c(C)ccc3C)cc2)c(OC)c1,5,x,0,2,i,-8,9,-23,
Cc1nc(N2CCC(C(N)=O)CC2)c2c(-c3cccs3)csc2n1,-7,-8,-16,-9,i,-3,-4,33,
Cc1cccc2c(C(=O)Nc3ccc(Br)cc3)cc(-c3ccccn3)nc12,3,x,3,8,i,-7,15,-22,
# The list goes on:
SMILES,PABP polyA inh,UUG fidelity,MT1-MMP act inh,MT1-MMP act inh RFP,Rce1 inhib,CSC inhib,eIF4H FP inh,HIV Env fusion,others
COc1ccc(S(=O)(=O)Nc2ccc(N3CCOCC3)cc2)cc1,10,-3,1,-10,i,5,2,11,
O=C(Cn1nnc2ccccc21)Nc1ccc(Cl)cn1,15,-11,-3,0,i,-8,0,-5,
CCOC(=O)c1cccc(-c2ccc(C=O)o2)c1,26,4,-1,3,i,15,2,-62,
COc1ccc(COC(=O)c2cccc(S(=O)(=O)N3CCN(C(C)=O)CC3)c2)cc1,x,-13,-2,-14,i,13,x,-4,
S=c1[nH]nc(CCc2ccccc2)n1Cc1ccccc1,5,-17,-1,-4,i,-7,-8,-161,

# Bioassay records: PubChem, several laboratories
